Screening data as filed in PubChem BioAssay.
PINK1 expr mod – modulators of PINK1 expression | AID 624263 | Potency, µM (doses to about 76.6 µM), without a hit: top-dose activation (PINK1 increase), actives largely listed as activators | PINK1 immunofluorescence, high-content cytometry, 24 h | 410,000 compounds, 0.2% hits; active = well fitted activation curve with a large enough effect; inconclusive = small, poorly fitted or top-dose-only effect; inactive = flat fitted curve, though single readings scatter; cell line not stated here;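 also: potency is read from the fitted curve at half-maximal effect; % of control where 0% means no effect; nearly all actives have a fitted effect of over 65% in size; a mitochondrial uncoupler was the plate control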
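Stable cell line treated 24 h with compounds at 5 concentrations (CCCP controls), then fixed and immunostained for PINK1 plus nuclear and cell stains; PINK1 immunofluorescence quantified by laser-scanning microplate cytometry.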
TRPML1 inh – inhibitors of human TRPML1 channel; Q9GZU1; TRPML1-inducible cells, Ca2+ dye fluorescence, FDSS; hits give low values; inhibition of EC80 agonist-evoked calcium signal; activity change, negative = inhibition, % (test concentration not listed); 390,000 compounds, 0.02% hits; AID 624415; in the data active means activity change below about -50%; inconclusive means about -30% to -50%; inactive means above about -30%;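 also: stimulus is agonist 54-4 at its EC80 concentration; % is scaled to controls: 0 for no effect and ±100 for the full control effect; compound concentration not given in the record; the text of the record puts the active cut at -80%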
Target sequence (Q9GZU1 whole entry, looked up): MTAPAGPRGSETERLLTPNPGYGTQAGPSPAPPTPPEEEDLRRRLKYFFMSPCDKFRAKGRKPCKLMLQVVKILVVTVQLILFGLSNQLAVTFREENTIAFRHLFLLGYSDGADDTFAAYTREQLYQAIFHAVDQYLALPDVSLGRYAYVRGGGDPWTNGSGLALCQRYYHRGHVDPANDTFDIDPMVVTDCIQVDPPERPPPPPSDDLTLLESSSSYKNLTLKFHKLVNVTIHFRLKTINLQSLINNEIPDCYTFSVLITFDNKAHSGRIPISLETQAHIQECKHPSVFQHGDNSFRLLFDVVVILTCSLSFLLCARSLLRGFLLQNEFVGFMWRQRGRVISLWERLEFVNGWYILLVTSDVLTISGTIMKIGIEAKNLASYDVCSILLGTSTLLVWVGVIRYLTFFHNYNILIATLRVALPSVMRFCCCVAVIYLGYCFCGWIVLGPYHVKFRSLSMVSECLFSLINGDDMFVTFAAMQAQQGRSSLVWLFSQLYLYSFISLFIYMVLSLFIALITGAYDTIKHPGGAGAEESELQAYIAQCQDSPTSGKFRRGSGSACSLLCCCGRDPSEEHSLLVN
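Tet-induced TRPML1-DL cells loaded with Ca8 no-wash calcium dye were read kinetically on FDSS. Compound addition was followed by EC80 agonist 54-4 (4 uM final); inhibition was read over 110 s.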
D2 ag – activates the human D2 dopamine receptor; P14416; DiscoveRx PathHunter D2 beta-arrestin, luminescence, 90 min; 100% = 57 uM dopamine signal; activation, % (no concentration beside the values); 360,000 compounds, 0.084% hits; in the data active = activation above about 40%; inconclusive = about 15% to 40%; inactive = below about 15%; also: compound concentration not given in the record; the text of the record calls up to 30% inactive
Target sequence (P14416 whole entry, looked up): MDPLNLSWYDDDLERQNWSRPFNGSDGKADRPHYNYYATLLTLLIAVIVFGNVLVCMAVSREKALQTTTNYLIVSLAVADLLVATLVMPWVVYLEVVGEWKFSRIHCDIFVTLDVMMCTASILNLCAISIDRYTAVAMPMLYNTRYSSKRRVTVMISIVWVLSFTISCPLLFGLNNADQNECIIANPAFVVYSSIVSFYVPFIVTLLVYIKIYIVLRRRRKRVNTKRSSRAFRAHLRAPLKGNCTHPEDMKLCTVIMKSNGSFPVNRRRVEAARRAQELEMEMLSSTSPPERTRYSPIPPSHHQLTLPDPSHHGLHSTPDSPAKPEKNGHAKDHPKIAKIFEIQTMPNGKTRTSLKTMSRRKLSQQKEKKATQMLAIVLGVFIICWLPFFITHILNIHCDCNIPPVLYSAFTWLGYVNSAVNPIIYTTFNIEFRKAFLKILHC
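DiscoveRx PathHunter D2 beta-arrestin cells (2,100/well) attached overnight, then compound-stimulated 90 min at 37 C in HBSS/10 mM HEPES/0.1% Tween-20 buffer; beta-galactosidase complementation read by luminescence after 1 h at ambient temperature. Dopamine 57 uM final (EC100) as control.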
Six1-Eya2 inh – blocks human Six1 binding to Eya2 | 360,000 compounds, 0.56% hits | Q15475+O00167 | AlphaScreen GST-Six1/His-Eya2 binding, biochemical; hits give low values; control for the full effect not named in the record | activity change, % (no concentration beside the values); in the data active = activity change below about -65%; inconclusive = about -30% to -65%; inactive = above about -30%; also: % is scaled to controls: 0 for no effect and ±100 for the full control effect
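AlphaScreen with GST-Six1 and His-Eya2 (5X mix: 250 nM and 500 nM), glutathione donor and nickel acceptor beads; buffer 50 mM Tris pH 8.0, 300 mM NaCl, 1 mM TCEP; 1 h at 37 C in the dark.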
CtBP-E1A inh – inhibitors of CtBP/E1A interaction | AlphaScreen GST-E1A/His-CtBP binding, 1536-well; hits give low values; control for the full effect not named in the record | activity change, % (test concentration not listed) | 340,000 compounds, 0.49% hits; in the data active means activity change below about -65%; inconclusive means about -30% to -65%; inactive means above about -30%; also: % is scaled to controls: 0 for no effect and ±100 for the full control effect
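In 5 uL wells, 23 nL compound meets equimolar GST-E1A and His-CtBP (5X stock 125 nM each) for 2 h, 37 °C. Beads (5X, 50 ug/mL) then 1 h, 37 °C, dark.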
TRPML1 agonist – agonists of human TRPML1 channel; TRPML1-expressing cells, Ca2+ dye fluorescence, FDSS; host cell line not named in the record; reference of the full effect not given here; activation, % (no concentration beside the values); 410,000 compounds, 0.12% hits; AID 624414; in the data active = activation above about 50%; inconclusive = about 30% to 50%; inactive = below about 30%; also: 0% is about no effect; the text of the record puts the active cut at 80%
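Agonist activity was taken from a 110 s kinetic Ca2+ dye read on the FDSS after pinning compounds onto TRPML1-DL cells. The cells were seeded at 1,500/well with Tet inducer, incubated about 16 h, then dye-loaded at room temperature.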
Active calls of the source: *; ? = inconclusive; . = no result given; [ ] = another dose, or the depositor's remark.

SMILES	PINK1 expr mod	TRPML1 inh	D2 ag	Six1-Eya2 inh	CtBP-E1A inh	TRPML1 agonist
COc1ccc(CC(=O)NC2CC(=O)N(c3ccc4c(c3)OCCO4)C2)cc1 (stereo not given)	0.6%	-13.2	.	.	.	-0.6
O=C(c1csc2c1CCCCC2)N1CCN(c2ncccn2)CC1	0.3%[38.3 µM]	-5.8	-2.1	-0.3	13.0	-0.3
O=C(c1ccccc1)N1C(=O)C(c2ccccc2)Oc2ccccc21 (stereo not given)	7.2%	-5.1	-2.5	11.3	0.0	0.9
C[C@H](CO)N1C[C@H](C)[C@@H](CN(C)S(C)(=O)=O)Oc2ccc(NC(=O)Nc3ccc(C(F)(F)F)cc3)cc2C1=O	-0.4%	1.2	-5.6	-10.2	1.0	-0.5
COC(=O)c1cc(S(=O)(=O)N2CCC(C)CC2)cn1C	0.5%	-18.0	7.5	0.2	.	-0.8
COc1cc2cc(C(c3nnnn3C(C)(C)C)N3CCC(C)CC3)c(=O)[nH]c2cc1OC (stereo not given)	.	2.8	-2.0	-0.6	2.4	-0.2
CCCn1nc2cc(C(=O)NCc3ccccc3)ccc2c1OCC	-0.8%	20.0	-0.6	5.3	0.1	-0.4
COc1cccc(OCCCCN2CC(C)OC(C)C2)c1 (stereo not given)	-2.6%	-16.6	-1.0	4.8	2.8	3.7
NC(=O)COC(=O)c1ccc(Cl)c(S(=O)(=O)N2CCN(c3ccc(F)cc3)CC2)c1	2.5%	4.6	0.0	-23.9	.	4.6
CC(=O)c1cccc(OCc2cc(C(=O)N(C)CCC3CCOCC3)no2)c1	1.2%	7.3	-0.1	0.3	6.3	-1.0
O=C(COc1ccccc1)NC1CCCN(Cc2ccccc2F)C1 (stereo not given)	-0.4%	-7.7	-4.8	-1.7	2.5	-0.1
CC1(C(=O)NCc2ccncc2)Cc2c(-c3cccc(C(F)(F)F)c3)ccnc2O1 (stereo not given)	6.4%	.	-4.4	-3.4	2.2	-0.8
Cc1cc(C(F)(F)F)nn1CC(=O)NNC(=S)Nc1ccc(F)cc1	1.0%	-7.0	-3.5	1.8	-18.4	-0.1
CCC1CCCCN1S(=O)(=O)c1ccc(NC(=O)c2cc(=O)c3c(C)cc(C)cc3o2)cc1 (stereo not given)	13.1%	32.5	.	.	.	3.5
O=C(Nc1ccc2c(c1)OCO2)c1ccc(Br)o1	-2.2%[38.3 µM]	2.0	-2.9	-1.0	2.9	-0.5
NC(=O)c1c(NC(=O)Cn2nc(C(=O)O)c3ccccc3c2=O)sc2c1CCCC2	1.3%	-6.3	0.9	-7.3	.	1.3
O=C(Cc1ccccc1[N+](=O)[O-])NCc1ccncc1	5.8%	-7.7	2.5	12.7	5.9	-0.4
COC(=O)c1ccccc1NC(=O)CNc1cc(Cl)ccc1N1CCOCC1	-0.7%	11.4	2.8	0.3	-3.1	1.1
Cc1cc2c(N=O)c(NO)ccc2[nH]1	0.1%	-18.6	14.7	-3.5	-11.5	-0.4
O=C(Nc1ccc(CN2CCCCC2)cc1)c1cc(Br)ccc1Cl	-1.5%	-8.6	-0.7	-2.0	7.3	1.0

Reprinted at random: two compounds from above.
SMILES	PINK1 expr mod	TRPML1 inh	D2 ag	Six1-Eya2 inh	CtBP-E1A inh	TRPML1 agonist
O=C(Nc1ccc2c(c1)OCO2)c1ccc(Br)o1	-2.2%[38.3 µM]	2.0	-2.9	-1.0	2.9	-0.5
CC1(C(=O)NCc2ccncc2)Cc2c(-c3cccc(C(F)(F)F)c3)ccnc2O1 (stereo not given)	6.4%	.	-4.4	-3.4	2.2	-0.8

Other records follow.
SMILES	PINK1 expr mod	TRPML1 inh	D2 ag	Six1-Eya2 inh	CtBP-E1A inh	TRPML1 agonist
CC1(C)Cc2c(C#N)c(N3CCN(C(=O)c4ccco4)CC3)nc(-c3ccco3)c2CS1	2.8%	7.5	-3.6	-12.5	-2.3	0.4
CCOC(=O)c1c(Nc2ccc(Cl)cc2)sc(/C=C2\C=Nc3ccccc32)c1O	10µM*	-0.2	-0.5	-7.2	0.0	0.9
Cc1ccc(C(=O)Oc2coc(CSc3nnc(NC(=O)C4CC4)s3)cc2=O)cc1C	-1.8%	-14.6	-0.8	-9.9	10.5	-0.1
Cc1[nH][nH]c(=O)c1C=NCc1cccnc1	0.1%	-1.1	-1.7	-0.6	.	-0.5
O=C(NCc1cccc(Cl)c1)c1ccc(-n2ccnc2)c2ccoc12	-1.4%	42.9	-8.8	-12.0	-4.3	-0.8
O=c1oc2ccc3ccccc3c2c2c1SC(C(F)(F)F)C2 (stereo not given)	6.5%	3.4	-0.2	-12.3	-8.7	1.6
O=C1CCCCC1C(=O)c1ccccc1 (stereo not given)	1.8%	-10.7	-3.5	4.4	4.8	-1.1
CCN(CC(=O)NCc1cccs1)C(=O)CCCOc1ccccc1	2.2%	-0.8	-0.4	4.6	-2.8	0.5
C/C(=C\c1ccccc1)C(=O)n1nnc2ccccc21	0.1%[38.3 µM]	23.0	-0.4	6.1	7.1	2.0
Cc1cc(C)cc(OCC(=O)OCC(=O)NC2CCCC2)c1	-0.3%	-4.7	-3.4	3.7	.	0.0
COc1cccc(-c2sc3ccc(OC)cc3c2-c2ccc(OCCN3CCOCC3)cc2)c1	0.7%	29.2	7.7	?	-8.2	0.3
Cc1cc(C)nc(/N=C(\N)N2CCCCCC2)n1	-2.4%	8.1	-3.6	-3.1	15.5	-0.2
Cc1cc(Br)ccc1SCC(=O)OCC(=O)NC1CCCC1	1.1%	9.2	-0.4	4.8	.	1.8
CCOc1ccc(CCNC(=O)c2ccc3c(c2)c(C)c(C)n3Cc2ccccc2)cc1OCC	0.6%	-12.0	.	.	.	0.9
CCN1CCN(c2ccc(S(=O)(=O)N3CCCCC3)cc2NC(=O)c2sccc2C)CC1	3.0%	-6.8	-8.3	-8.4	-3.9	-0.3
CCN(CC(=O)Nc1ccc(OC)cc1)C(=O)Cc1cccs1	-0.1%	-1.7	1.2	-6.4	-1.6	1.6
COc1ccc(-c2cc(C(F)(F)F)n3nc(C(=O)N4CCN5CCCC5C4)cc3n2)cc1OC (stereo not given)	1.5%	13.2	-4.4	-25.6	?	-0.2
COc1cc(CN(C(=O)COc2ccc(F)cc2)c2ccccn2)cc(OC)c1OC	-0.6%	-3.7	.	.	.	-1.1
COc1ccccc1CNC(=O)C(=O)NCC(c1cccnc1)N1CCN(c2ccc(F)cc2)CC1 (stereo not given)	-1.8%	29.5	.	.	.	2.1
O=C(CN1C(=O)NC2(CCOc3ccccc32)C1=O)NCC(F)(F)F (stereo not given)	5.6%	-13.8	-4.2	12.7	-5.4	0.9
O=c1[nH]c(CN2CCN(S(=O)(=O)c3ccc4ccccc4c3)CC2)nc2ccccc12	12.7%	-16.4	-3.3	0.5	3.2	1.3
CCOc1cc(/C=N/NC(=O)c2ccc(=O)n(C)c2)ccc1O	1.6%	16.1	-2.3	-11.5	-1.7	-0.3
CCN=C(Nc1ccc2c(c1)OCO2)SC1CC(=O)N(c2ccccc2F)C1=O (stereo not given)	0.4%	35.4	-1.1	0.3	0.3	-0.8
COCC(=O)N1CCCC(C(=O)c2ccc(-c3ccccc3)c(F)c2)C1 (stereo not given)	0.9%	10.2	-2.9	-1.2	4.7	0.3
N#Cc1ccc(C(=O)Nc2ccc(S(=O)(=O)NC3=NCCCCC3)cc2)cc1	-1.1%	17.1	0.4	-5.2	2.7	-0.2
CCN(CC)c1nn2c(=O)c(C(=O)NCCc3cccc(C)c3)cnc2s1	-0.3%	-9.8	.	.	.	1.5
COc1cccc(NC(=O)CN(C)C(=O)c2cc(C)on2)c1	-0.1%	-15.4	-2.0	0.9	3.8	-0.2
COc1ccc(S(=O)(=O)N(CCCN2CCCC2=O)Cc2cc3cc(C)c(C)cc3[nH]c2=O)cc1	-1.0%	-6.6	0.5	1.6	5.9	-1.0
CCOC(=O)C1CCN(C(=O)c2cccc(S(=O)(=O)Nc3ccc(C)cc3C)c2)CC1	1.9%	-3.9	2.9	-0.1	0.0	-0.1
OCCOCCNc1ncnc2c1c(-c1ccccc1)cn2-c1ccccc1	-0.3%	-13.0	-0.4	-8.3	-5.8	-1.1
CCOc1cc(/C=N/Nc2nc(N3CCCC3)nc(N3CCCC3)n2)ccc1O	-0.4%	-13.1	-1.0	?	?	-0.2
COc1cccc(CNC(=O)C2CCN(c3nnc(-n4c(C)ccc4C)s3)CC2)c1	-0.6%	-4.7	.	.	.	0.0
C/C(=N\Nc1ccccn1)c1ccc(OC(F)F)cc1	1.7%	4.8	4.6	-8.5	3.5	-0.6
Cc1ccc(Cc2nnc3n(-c4cccc(C)c4)nc(C(=O)c4ccccc4)n3c2=O)cc1	.	1.0	-0.7	-2.8	3.1	1.6
COc1ccc(NC(=O)c2ccc3c(c2)NC(=O)CS3)cc1S(=O)(=O)Nc1ccc(Br)cc1	6.5%	23.3	0.2	-1.7	.	0.7
COc1ccc(CN(C)C(=O)c2cc(S(=O)(=O)N3CCCCCC3)ccc2OC)cc1OC	-0.9%	-18.1	3.2	11.2	-0.4	-0.5
CCc1ccc2[nH]c3nc(SCCN4CCOCC4)nnc3c2c1	1.0%	-0.2	-5.2	?	-18.2	0.0
O=C(c1ccc(COc2ccc(Cl)cc2)o1)N1N=C(C(F)F)CC1(O)C(F)F (stereo not given)	?	44.7	2.6	0.3	6.0	8.0
COc1ccc(CNc2cccc(F)c2)cc1Br	8.0%	10.3	-5.1	13.5	2.8	-0.8
CCOc1ccc(NC(=O)CC2C(=O)N(c3cccc(OC)c3)C(=O)N2CCOC)cc1 (stereo not given)	-0.5%	24.3	0.1	2.6	-0.1	-0.4
CC(=O)Nc1ccc(C(=O)OCC(=O)NCc2cccs2)cc1	1.6%	-4.1	2.6	7.8	-5.6	-0.4
COc1ccccc1N1CCN(C(=O)C2CCN(C(=O)c3cccc(Cl)c3)CC2)CC1	0.0%	-4.8	1.7	-0.2	6.2	-0.5
CCCOc1ccc(N2C(=O)CC(N3CCC(O)(c4cccc(C(F)(F)F)c4)CC3)C2=O)cc1 (stereo not given)	5.7%	2.1	-2.9	-4.1	-3.4	0.1
O=C(COC(=O)c1cc(S(=O)(=O)N2CCOCC2)ccc1O)NCC1CCCO1 (stereo not given)	2.2%	-1.7	2.1	6.7	3.8	0.7
CC1=C(C(=O)OCC(C)C)[C@]23C(=O)c4ccccc4[C@@]2(O1)OC(N)=C3C#N	-3.8%	10.8	-0.1	-0.7	0.0	0.7
Cc1ccc(N2CC(NC(=O)Cc3ccc(F)cc3)CC2=O)cc1C (stereo not given)	1.4%	-17.2	.	.	.	-0.8
Cc1onc(-c2ccccc2)c1C(=O)N1CCC(CO)(Cc2ccccc2)CC1	0.7%	-10.2	-2.9	16.2	0.0	-0.5
CCC(=O)c1ccc(OCC(=O)OCC(=O)NCc2cccs2)cc1	2.0%	4.4	1.9	2.8	0.6	1.2
CC1(C)CC(=O)C2=C(C1)N(c1cccnc1)C(N)=C(C#N)C2c1cccs1 (stereo not given)	1.1%	12.8	8.0	-0.4	-4.1	1.5
O=C(CC1C[C@H](C(=O)N2CCOCC2)[C@@]2(CCC3CCCC3)c3[nH]c4ccccc4c3CCN2C1=O)NCCC1=CCCCC1 (stereo not given in full)	-0.7%	5.1	2.3	3.9	8.5	-0.5
